Screens from PubChem.
HTT prom inh: inhibitors of huntingtin promoter activity. HEK293 HTT promoter firefly luciferase reporter (activity 0% = vehicle and -100% = no light), 24 h. AID 1508623. 48,000 compounds, 0.93% hits. Potency, µM (titrated, usually from 57.5 µM), without a hit: at the top dose activity change, negative = inhibition, hits mostly inhibitors; active means well fitted inhibition curve with a large enough effect; inconclusive means small, poorly fitted or top-dose-only effect; inactive means no such curve, though single readings can be large or run the other way; further: nearly all actives have a fitted effect of over 50% in size
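HEK293 Fluc reporter, 2,500 cells/well, 24 h pre-culture; cpds up to 57.5 uM final, 24 h 37 degrees C; Dual-Glo, 10 min RT; normalized vehicle = 0%, zero RLU = -100%.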
PMP22 txn prim: modulates PMP22 transcription in S16 Schwann cells; S16 Pmp22-F2sN Schwann cells (luciferase reporters placed in the Pmp22 gene), FLuc/NLuc coincidence luminescence, 24 h; Potency, µM (doses to about 57.5 µM), for inactives: at the top dose activity change, negative = inhibition, most hits filed as inhibitors; 43,000 compounds, 2% hits; AID 1508649; active = clear falling dose curves in both reporters; inconclusive = both reporters move, but less clearly or upward; inactive = either reporter flat; the % is the NLuc reporter signal; further: on the % scale 0 is the no-effect control and ±100 the full control effect; some results filed as inactive show a strong effect at the top dose
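Rat S16 Pmp22-F2sN cells, 500-1,000/well in phenol red-free DMEM + 10% FBS, compound-treated 24 h (37C, 5% CO2). Luminescence: FLuc read, Stop&Glo added, NLuc read.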
Starred values were filed as active, the others as inactive; ? = inconclusive; · = no result given; & = joins results of further samples; [ ] = another dose, or the depositor's remark. Potency means the concentration at half of the fitted maximal effect.

SMILES	HTT prom inh	PMP22 txn prim
CCCCCCc1cc2cc(-c3nnc(-c4cccc(Cl)c4)o3)c(=O)oc2cc1O	-6%	-2%
O=c1c2oc3ccccc3c2n(Cc2ccc(Cl)cc2)c(=O)n1Cc1ccco1	-20%	?
CC1CCn2c(nc3cc(C(=O)NCc4ccc(OC(C)C)cc4)ccc32)C1 (stereo not drawn)	45%[activator]	-12%
Cc1ccc(C)c(NC(=O)Cn2nc(C)c3nn(-c4ccc(Cl)cc4)c(C)c3c2=O)c1	-17%	1%
CCCCN(CC)CCCNC(=O)c1nn(C)c2c1CSc1ccccc1-2	-16%	?
COC(=O)c1c(-c2cccs2)csc1NC(=O)COc1ccccc1	43%[activator]	-79%
CCOc1ccc2nc(N3CCCC(C(=O)NCc4ccccc4OC)C3)sc2c1 (stereo not drawn)	28%	-5%
Cc1ccc(CNC(=O)c2ccc(CSCc3c(F)cccc3Cl)o2)cc1	4%	-32%
Cc1oc(-c2cccc(Cl)c2)nc1CN1CCC(C(=O)NC(C)C)CC1	1%	32%
Nc1c(C(=O)Nc2ccccc2)nnn1Cc1ccc(F)cc1Cl	60%[activator]	-17%
Cc1ccc(C)c(OCCn2cc(C(=O)c3cccs3)c3ccccc32)c1	?	-46%
CCc1cc(=O)[nH]c(SCc2nc(-c3cccc(Cl)c3)no2)n1	-14%	-17%
CCOC(=O)C1CCN(C(=O)c2ccc3c(c2)sc2nc(-c4ccc(OC)cc4)cn23)CC1	-21%	-3%
COc1ccc(-c2cccc(NS(=O)(=O)c3cc(C(F)(F)F)ccc3Cl)c2)nn1	?	8%
CC(=O)c1cccc(Nc2ccc3cc(S(=O)(=O)N4CCCC4)ccc3n2)c1	-20%	-2%

One compound at a time, from the list above:
Record of CCCCCCc1cc2cc(-c3nnc(-c4cccc(Cl)c4)o3)c(=O)oc2cc1O : HTT prom inh = -6%; PMP22 txn prim = -2%
Record of Cc1ccc(CNC(=O)c2ccc(CSCc3c(F)cccc3Cl)o2)cc1 : HTT prom inh = 4%; PMP22 txn prim = -32%

Later entries.
SMILES	HTT prom inh	PMP22 txn prim
CC(C)(c1ccc(O)cc1)c1ccc(O)cc1	-21%[116 µM]	·
Cc1ccc2c(=O)cc(C(=O)Nc3sc4c(c3C(=O)NCc3cccnc3)CCCC4)oc2c1C	-4%	-5%
COc1ccccc1NC(=O)c1cc2c(n(-c3ccc(C)cc3)c1=O)CC(C)(C)CC2=O	-8%	-18%
Cc1nn(C)c2c1c(C(F)(F)F)cc(=O)n2C(C)C(=O)Nc1ccccc1F (stereo not drawn)	-38%	?
Cc1ccc(C)c(NC(=O)CCn2nc(C)c3c(C)n(-c4ccccc4)nc3c2=O)c1	-18%	6%
Cc1nc(-c2ccccc2)sc1CCNC(=O)C(=O)Nc1ccc(F)c(Cl)c1	-14%	?
COc1ccc(Cl)cc1C(=O)Nc1c2c(nn1-c1ccc(Cl)cc1)CS(=O)(=O)C2	-1%	-5%
CC(=O)c1ccc(N2C(=O)N(CC(=O)c3ccc(C)cc3)c3ccccc3S2(=O)=O)cc1	-23%	-9%
CC(O)CN(CCN(CC(C)O)CC(C)O)CC(C)O (stereo not drawn)	-1%	·
COc1ccc(-c2nc3ccccc3n3c(-c4cccc(C)c4)c4c(=O)n(C)c(=O)n(C)c4c23)cc1OC	?	?
Cc1cc(NC(=O)c2cccnc2)cc(-c2nc3cc(Cl)ccc3o2)c1O	-6%	-6%
Cc1ccccc1CCNC(=O)c1ccc2c(c1)nc1n2CCC(C)C1 (stereo not drawn)	72%[activator]	?
CCC(=O)NCC[C@@H]1CCc2ccc3c(c21)CCO3	-5%	·
CCOC(=O)c1cc(-c2ccccc2)n(CCC(=O)NC2CCCCC2)c1C	?	-9%
Cc1nc2c(-c3ccccc3)c(C)nn2c(C)c1CCC(=O)NCc1ccccc1	-20%	33%

Given with two lines to a compound: entries from further up.
The line under a structure holds: HTT prom inh | PMP22 txn prim
Cc1cc(NC(=O)c2cccnc2)cc(-c2nc3cc(Cl)ccc3o2)c1O
 : -6% | -6%
CC1CCn2c(nc3cc(C(=O)NCc4ccc(OC(C)C)cc4)ccc32)C1 (stereo not drawn)
 : 45%[activator] | -12%
COc1ccc(-c2cccc(NS(=O)(=O)c3cc(C(F)(F)F)ccc3Cl)c2)nn1
 : ? | 8%
COc1ccc(-c2nc3ccccc3n3c(-c4cccc(C)c4)c4c(=O)n(C)c(=O)n(C)c4c23)cc1OC
 : ? | ?
Nc1c(C(=O)Nc2ccccc2)nnn1Cc1ccc(F)cc1Cl
 : 60%[activator] | -17%
Cc1nn(C)c2c1c(C(F)(F)F)cc(=O)n2C(C)C(=O)Nc1ccccc1F (stereo not drawn)
 : -38% | ?
COC(=O)c1c(-c2cccs2)csc1NC(=O)COc1ccccc1
 : 43%[activator] | -79%

The listing continues:
SMILES	HTT prom inh	PMP22 txn prim
Cc1cccc(NC(=O)CS(=O)(=O)c2cccc3nsnc23)c1	-7%	2%
Cc1cccc(OCC(O)CNC(C)(C)C)c1C (stereo not drawn)	-4%	·
COC(=O)c1c(NC(=O)/C(C#N)=C/c2ccccc2)sc2c1C(C(=O)OC)CC2 (stereo not drawn)	-19%	-31%
Cn1nnnc1SCCCNCc1cccc(OCc2ccccc2Cl)c1	-14%	?
COc1ccc(C(=O)n2nc(-c3ccco3)nc2NCc2cccs2)cc1	15%	-25%
Cc1ccc(/C=C/c2onc(C)c2S(=O)(=O)N2CCC(C(=O)NCc3ccc(OC(C)C)cc3)CC2)cc1	-20%	23%
CC(C)c1ccc(C2c3c(oc4ccc(Cl)cc4c3=O)C(=O)N2CCCN2CCOCC2)cc1 (stereo not drawn)	?	?
COc1cccc(CNC(=O)c2ccc(-n3c(C)cc4c3CCC(C)C4)cc2)c1 (stereo not drawn)	12%	?
CCOc1ccc(N(CC)S(=O)(=O)N2CCCC(C(=O)Nc3cc(Cl)ccc3OC)C2)cc1 (stereo not drawn)	?	12%
CC1(C)OC[C@@H](COC(=O)CCc2ccc(OC[C@@H](O)CNCCNC(=O)N3CCOCC3)cc2)O1	10%	·
CCOCCc1nn2c(=O)cc(COC(=O)c3ccccc3NC(=O)c3cccs3)nc2s1	0%	-23%
CCOc1ccc(NC(=O)c2c(Nc3ccccc3C)sc(C(=O)c3ccc(Cl)cc3)c2N)cc1	?	?
CC(=O)N1CCc2cc(CNC(=O)Nc3cc(Cl)ccc3C)ccc21	-26%	13%
NC(=O)C1CCN(c2ncnc3c2cnn3-c2ccccc2)CC1	?	0%
COc1ccc(-n2ncc(C(=O)N3CCN(c4ccccn4)CC3)c2C2CCN(C(=O)OC(C)(C)C)CC2)cc1	0%	36%
O=C(Nc1ccc(C(=O)N2CCCCC2)cc1)c1nsc2ccccc12	-12%	-14%
Cc1cc(OCCn2c(C3CC(=O)N(Cc4ccc(F)cc4)C3)nc3ccccc32)ccc1Cl (stereo not drawn)	?	?
CCOC(=O)c1c(C)[nH]c(C)c1S(=O)(=O)N1CCCC(C(=O)NCc2ccc(N(C)C)cc2)C1 (stereo not drawn)	-9%	6%
COc1ccc(-n2nc(C(=O)N3CCCCC3)c3c4ccccc4n(C)c3c2=O)cc1Cl	-5%	-28%
O=C(NCc1ccccc1Cl)c1ccc(Cn2c(SCc3ccccc3)nc3cccnc32)cc1	-25%	-19%
CC(=O)c1cccc(NC(=O)CN2C=NS(=O)(=O)c3ccc(C)cc32)c1	9%	-7%
COCC(=O)N1CCc2cc(OC)c(OC)cc2C1COc1ccc2c(C)cc(=O)oc2c1 (stereo not drawn)	-9%	-9%
O=C(Nc1cc(Cl)cc(Cl)c1)c1cc(S(=O)(=O)NC2CCCC2)ccc1F	?	?
Cc1ccc(OCC(=O)OCc2cc(=O)n3nc(C4CC4)sc3n2)cc1C	?	?
COCC(=O)N1c2nc(C(C)C)nn2C2(CCCCC2)[C@@H]2CCCC[C@@H]21	?	-13%
Cc1ccc(C(=O)N(Cc2ccco2)Cc2sccc2C)cc1	-19%	0%
CCOc1ccc(-c2nonc2NC(=O)c2oc3ccc(CC)cc3c2C)cc1	2%	-1%
Oc1c(C(c2ccc(F)cc2)N2CCOCC2)sc2nc(-c3ccco3)nn12 (stereo not drawn)	19%	32%
COCCCNC(=O)c1ccc2nc(Cc3ccc(OC)cc3)oc2c1	-15%	-18%
O=C(CSc1nc2ncccc2[nH]1)Nc1cc(F)ccc1F	-5%	-33%
CCc1cccc(NC(=O)CCn2c(=O)c3cccn3c3cccnc32)c1	-1%	-17%
Cc1ccc(NC(=O)CSc2nnc(NC(=O)NC3CCCCC3)s2)cc1	24%	-3%
Cc1ccc(NC(=O)C(=O)NCC(c2cccnc2)N2CCc3ccccc3C2)cc1 (stereo not drawn)	?	-23%
Cc1ccc(Nc2sc(C(=O)c3ccccc3)c(N)c2S(=O)(=O)c2ccccc2)cc1Cl	-27%	-23%
CCc1c(C)nc(SCc2nc(-c3ccccc3)no2)[nH]c1=O	9%	-48%
COc1ccc(OCC(=O)Nc2cc(-c3cccc(Cl)c3)nn2-c2ccccc2)cc1	36%[activator]	?
Cc1cccc(OCC(=O)Nc2ccc3oc(-c4ccccc4F)nc3c2)c1	19%	-10%
Nc1ccc(C(=O)c2cc3c(ccc4ccccc43)[nH]2)cc1	-17%	·
COc1ccccc1NC(=O)CSc1nnc(-c2ccccc2C)o1	60%[activator]	2%
COc1cc(OC)cc(C(=O)Nc2ccc(-c3nc4ccccc4s3)c(C)c2)c1	36%[activator]	11%
Cc1ccc(C2C=C(c3ccccc3)Nc3nc(NS(C)(=O)=O)nn32)cc1 (stereo not drawn)	-1%	-22%
CSc1ccc(C(=O)c2[nH]c(=O)[nH]c2C)cc1	8%	·
Cc1c(N)cccc1C(F)(F)F	12%	·
CCOc1ccc(Cn2nnc(C(=O)Nc3ccc(Cl)cc3)c2N)cc1	1%	2%
Cc1ccc(NC(=O)c2cc(S(=O)(=O)N3CCCCC3)c[nH]2)cc1N(C)C	7%	6%
CCCCN1C(=O)C(O)(CC(=O)c2ccc(C(C)(C)C)cc2)c2ccccc21 (stereo not drawn)	?	?
COCCNC(=O)c1ccc2c(=O)n(CCOC)c(SCC(=O)c3c[nH]c4ccccc34)nc2c1	-24%	-28%
Cn1nc(C(=O)Nc2cccc(C(F)(F)F)c2)c2c1-c1ccccc1S(=O)(=O)C2	9%	27%
CNC(=O)C1CCC(Cn2c(=O)c3sccc3n(CC(=O)Nc3ccccc3)c2=O)CC1 (stereo not drawn)	-72%	-11%
COc1ccccc1N(Cc1cc2cccc(C)c2[nH]c1=O)C(=O)c1cccc(Cl)c1	?	?
COc1ccc2c(CNCc3ccc(C)o3)c(C(=O)O)n(Cc3ccccc3)c2c1	-14%	1%
Clc1ccccc1C(c1ccccc1)(c1ccccc1)n1ccnc1	?	·
CCc1ccc2occ(CC(=O)Nc3c(C(=O)Nc4ccc(OC)cc4)oc4ccccc34)c2c1	3%	-20%
Cc1cccc(C)c1NC(=O)CCS(=O)(=O)c1ccc2c(c1)n(C)c(=O)c(=O)n2C	-15%	-16%
COC(=O)c1n[nH]n(-c2ccccc2)c1=O	0%	-3%
Cc1ccc(C)c(N2CCN(S(=O)(=O)c3ccc4c(c3)CC(=O)N4C)CC2)c1	-16%	-18%
Cn1c(NCCN(CCO)CCCc2ccc([N+](=O)[O-])cc2)cc(=O)n(C)c1=O	-2%&0%	·
CCOC(=O)c1cccc(NC(=O)c2cc(S(=O)(=O)N3CCCC3)cn2C)c1	-13%	-12%
COCCNC(=O)CCn1c(=O)c2cc(OC)c(OC)cc2n(CC(=O)Nc2ccc(F)c(Cl)c2)c1=O	-23%	48%
COc1ccc(CSc2nc3ccncc3n2CC(=O)Nc2ccc(C)c(F)c2)cc1	20%	0%
The list continues.
SMILES	HTT prom inh	PMP22 txn prim
CCOc1ccc(NC(=O)c2oc3ccccc3c2NC(=O)COc2cccc(OC)c2)cc1	-6%	-16%
COc1ccccc1CNC(=O)c1cccc(Nc2nc3ccccc3n3nnnc23)c1	-9%	?
COc1ccc(CC(=O)NCCc2csc(-c3cccc(F)c3)n2)cc1OC	-32%	2%
COc1ccc(-c2nc(-c3ccccc3)c(-c3ccc(F)cc3)[nH]2)c(OC)c1C	?	?
O=C(Nc1ccc2nc(SCC(=O)N3CCc4ccccc43)sc2c1)c1cccc(F)c1	-27%	-27%
CCc1ccccc1NC(=O)CN(Cc1ccccc1)S(=O)(=O)c1ccc2nc(C)sc2c1	-23%	?
Cc1ccc(NC(=O)N2CCC3(CC2)Oc2ccccc2C(=O)N3Cc2ccc(F)cc2)cc1	42%[activator]	-13%
CCOC(=O)c1cc2c(=O)n3ccccc3nc2n(Cc2ccco2)c1=NC(=O)c1cccc(Br)c1	-25%	?
CCOC(=O)c1c(NC(=O)CSc2cn(CCNC(=O)c3ccccc3F)c3ccccc23)sc2c1CCC2	?	-37%
CCOC(=O)N1CCN(S(=O)(=O)N2CCCC(C(=O)NCc3cc(Br)ccc3OC)C2)CC1 (stereo not drawn)	?	-30%
COc1ccc(NCc2cccn2-c2nnc(N3CCOCC3)s2)c(OC)c1	6%	-8%
Cc1cc(C)c2oc(C(=O)Nc3ccc(S(=O)(=O)Nc4ncccn4)cc3)cc(=O)c2c1	7%	5%
O=C(Nc1c(C(=O)Nc2ccc(F)cc2)oc2ccccc12)c1cc2ccccc2o1	6%	-12%
Cc1cccc(-n2ncc3c(N4CCCCCC4)ncnc32)c1	?	-16%
